# Source: PubChem
# VDR inh: Inhibitors of the vitamin D receptor (VDR): qHTS; AID 504847, 2011; 400,000 tested, 0.93% active; Potency, µM, for inactives: max response, negative = inhibition, usual class: inhibitors; Vitamin D3 receptor (Homo sapiens), P11473; VDR-SRC2-3 peptide fluorescence polarization, 2 h; active means well fitted inhibition curve with a large enough effect; inconclusive means small, poorly fitted or top-dose-only effect, or another doubt; inactive means no such curve, though single readings can be large or run the other way; further: series mostly up to about 120 µM
# Target sequence (P11473 whole entry, looked up): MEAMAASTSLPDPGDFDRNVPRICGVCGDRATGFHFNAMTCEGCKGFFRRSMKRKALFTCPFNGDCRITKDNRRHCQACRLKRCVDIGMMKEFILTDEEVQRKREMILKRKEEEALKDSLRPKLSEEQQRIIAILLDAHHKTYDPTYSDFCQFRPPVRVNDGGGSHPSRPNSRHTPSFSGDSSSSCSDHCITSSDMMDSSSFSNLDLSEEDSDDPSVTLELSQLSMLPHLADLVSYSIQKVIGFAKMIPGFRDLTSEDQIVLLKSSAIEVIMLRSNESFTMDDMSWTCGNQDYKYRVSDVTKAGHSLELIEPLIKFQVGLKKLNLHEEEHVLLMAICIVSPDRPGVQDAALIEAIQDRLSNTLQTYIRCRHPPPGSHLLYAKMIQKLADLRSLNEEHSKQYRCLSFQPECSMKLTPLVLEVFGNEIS
#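 FP read-out; VDR + SRC2-3 coactivator peptide; 23 nl compound by pintool; 2 h RT incubation; reagents held at 4 deg C, protected from light.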
# Numbers without * were called inactive; u = inconclusive; & = joins results of further samples; [ ] = remark or other dose. On the % scale 0 is the no-effect control and ±100 the full control effect; potency means the concentration at half of the fitted maximal effect. Only part of the results is shown; count on the stated rates, not on these rows.
SMILES,VDR inh
CCN(CC)N=O,12%
CC(C)N1CCN(Cc2ccc3c(c2)OCCO3)CC1CCO (stereo not given),10%
CCCCCn1c(=O)c(C(=O)Nc2ccccc2N)c(O)c2ccccc21,-9%
COC(=O)C1=C(c2ccc(-c3ccccc3)c(F)c2)C[C@@H]2CC[C@H]1N2C(=O)NCCOc1ccccc1,-7%
O[C@@H](Cc1ccncc1)C(Cl)(Cl)Cl,5%
Cc1ccccc1N1C(=O)NC(=O)/C(=C\c2cc(Br)c(N3CCOCC3)o2)C1=O,u
CCCCOCCCn1c(N)c(C(=O)OC(C)COC)c2nc3ccccc3nc21 (stereo not given),-10%
CCC(C(=O)Nc1ccc(Cl)cc1)N1CCCC1=O (stereo not given),-13%
COc1ccc(C(CNC(=O)Cc2ccc(Cl)c(Cl)c2)N2CCCCC2)cc1 (stereo not given),-13%
Brc1ccc2[nH]cc(/C=N/N3CCCCC3)c2c1,-12%
Cn1cc(C(=O)OCC(=O)Nc2ccccc2Cl)c2ccccc21,2%
COC(=O)C1=C(c2ccc(F)cc2OCc2ccccc2)C[C@@H]2CC[C@H]1N2C(=O)NCCCc1ccccc1,-10%
CCC1(CC)C(=O)NC(=O)N(C)C1=O,7%
Cc1cc(OCC(=O)N[C@@H](Cc2ccccc2)C(=O)O)c2c3c(c(=O)oc2c1)CCC3,6%
CCOc1cc(/C=C2/C(=O)NC(=O)N(c3ccc(CC)cc3)C2=O)ccc1OC(=O)c1cccs1,u
CCCCn1c(=O)c(C(=O)NCc2ccccc2)c(O)c2ccccc21,6%
O=C(Nc1ccc(Br)cc1)c1cc(Br)cc(Br)c1O,56µM*
CCOC(=O)N(c1ccccc1)P1(=S)OCC(C)O1 (stereo not given),5%
COC(=O)C(O)(c1ccc(N=Cc2ccccc2O)c(C)c1)C(F)(F)F (stereo not given),-2%
Cn1c(O)c(C=NCCOc2ccc(Cl)cc2)c(=O)n(C)c1=O,-16%
CCCCCCN1CCN(c2ccccc2Cl)CC1,14%
CC[C@]12CCCN3CCC4(c5ccccc5NC4C(C(=O)O)C1)C32 (stereo not given in full),-15%
CC(=NCC1CCCO1)c1c(O)n(C2CCCCC2)c(=O)[nH]c1=O (stereo not given),-4%
CCCCC1C(=O)NC(=S)N(C)C1=O (stereo not given),u
CC(C)c1cccc(O)c(=O)c1,u
COC(=O)C1=C(c2ccc(Cl)c(C(F)(F)F)c2)C[C@@H]2CC[C@H]1N2C(=O)NC1CCCCC1,-20%
CCc1nc2ccc(N3CCN(C)CC3)cc2nc1CC,1%
COc1ccc(OCC(=O)N2CCN(Cc3ccc(SC)cc3)CC2)cc1,-25%&-2%
Clc1ccc2c(c1)C(OC1CN3CCC1CC3)c1ccccc1CS2 (stereo not given),1%
Cc1cccc(NP(=O)(Oc2ccccc2F)Oc2ccccc2F)c1,-6%
COC(=O)[C@@H]1C[C@H](OC(C)=O)C(=O)[C@H]2[C@@]1(C)CC[C@H]1C(=O)O[C@H](c3ccoc3)C[C@]21C,u
Oc1ccc(/C=N/NP(=S)(c2ccccc2)c2ccccc2)cc1,-29%
S=C(c1ccc(Cl)cc1)N1CCOCC1,u
Nc1c(Cl)cc([N+](=O)[O-])cc1Cl,1%
CC1(C)C(=O)C=C[C@@]2(C)C1=C(O)C(=O)[C@@]1(C)C2CC[C@@]2(C)C(c3ccoc3)C[C@H]3O[C@@]321 (stereo not given in full),7.9µM*
CCOC(=O)c1[nH]c(C)c(C(=O)N2CCC3(CC2)OCCO3)c1C,-11%
CC(OC(=O)c1cn(C)c2ccccc12)C(=O)N(C)c1ccccc1 (stereo not given),-7%
CCN(CC)c1ccc(N=Cc2c(O)n(-c3ccccc3)c(=O)[nH]c2=O)cc1,-23%
Cc1ccc(NS(=O)(=O)c2ccc(OCC(=O)N3CCN(C)CC3)cc2)cc1,-8%
C#CCOCOCC#CCN(CC)CC,43%[activator]
C[C@H](NC(=O)[C@@H](N)Cc1ccc(O)cc1)C(=O)N[C@@H](Cc1ccccc1)C(=O)N[C@@H](Cc1ccccc1)C(N)=O,1%
O=[N+]([O-])c1ccc(N2CCCNCC2)c2ncccc12,3%
CN1CCC(N(C)c2nc(-c3ccc([N+](=O)[O-])cc3)nc3ccccc23)CC1,13%
CN1[C@H]2CC[C@@H]1C(C(=O)N1CCOCC1)=C(O)C2,-2%
c1cncc(CNC2CCCCC2)c1,14%

# Taken from above.
# VDR inh with C[C@H](NC(=O)[C@@H](N)Cc1ccc(O)cc1)C(=O)N[C@@H](Cc1ccccc1)C(=O)N[C@@H](Cc1ccccc1)C(N)=O → 1%
# VDR inh with C#CCOCOCC#CCN(CC)CC → 43%[activator]
# VDR inh with c1cncc(CNC2CCCCC2)c1 → 14%
# VDR inh with CC(OC(=O)c1cn(C)c2ccccc12)C(=O)N(C)c1ccccc1 (stereo not given) → -7%
# VDR inh with O=[N+]([O-])c1ccc(N2CCCNCC2)c2ncccc12 → 3%
# VDR inh with CN1[C@H]2CC[C@@H]1C(C(=O)N1CCOCC1)=C(O)C2 → -2%

# Additional results:
SMILES,VDR inh
CN(C)CP(=O)(O)CN(C)C=O,8%
CCOC(OCC)P(=O)(O)CCCN,-5%&7%
Cc1cccc(CCNCc2cc3cc(C)cc(C)c3[nH]c2=O)c1,-24%
CC(C)C12CN3CCN(CC(C3)/C1=N\O)C2,-6%
O=c1c2ccccc2[nH]c(=S)n1-c1cccnc1,65%[activator]
CC(C)(C)NC(=S)N1CCn2cccc2C1c1cccnc1 (stereo not given),-2%
Cc1ccc2c(c1)N(CCC(=O)N1CCC3(CC1)OCCO3)C(=O)CO2,17%
CC(/C=C(\C)Nc1ccccc1)=Nc1ccccc1,-5%
CCC(=O)c1cn(Cc2ccccc2C#N)c2ccccc12,-3%
CCOc1ccc(Cl)cc1CNCCc1ccccc1F,3%
O=S(=O)(c1ccc(Cl)cc1)N1CC1c1ccccc1 (stereo not given),-9%
COC(=O)C1=C(c2cccc(OC)c2OC)C[C@@H]2CC[C@H]1N2C(=O)NCCS(C)=O (stereo not given in full),-12%
O=C(Nc1nc(-c2ccccc2)c(-c2ccccc2)s1)c1ccc(S(=O)(=O)N(CCCl)CCCl)cc1,-7%
COc1ccc2c(c1)CC1(CN2C)C(=O)NC(=O)N(CCc2ccccc2)C1=O (stereo not given),u
Cc1oc(-c2ccccc2F)nc1CS(=O)CC(=O)N1CCC2(CC1)OCCO2 (stereo not given),-25%

# Taken from the results shown for reference:
SMILES,VDR inh
O=S(=O)(c1ccc(Cl)cc1)N1CC1c1ccccc1 (stereo not given),-9%
COC(=O)C1=C(c2cccc(OC)c2OC)C[C@@H]2CC[C@H]1N2C(=O)NCCS(C)=O (stereo not given in full),-12%
O=C(Nc1nc(-c2ccccc2)c(-c2ccccc2)s1)c1ccc(S(=O)(=O)N(CCCl)CCCl)cc1,-7%
COc1ccc2c(c1)CC1(CN2C)C(=O)NC(=O)N(CCc2ccccc2)C1=O (stereo not given),u
Cc1oc(-c2ccccc2F)nc1CS(=O)CC(=O)N1CCC2(CC1)OCCO2 (stereo not given),-25%

# (more compounds)
SMILES,VDR inh
O=C(c1cc(S(=O)(=O)N2CCOCC2)ccc1F)N1CCC2(CC1)OCCO2,28%
O=C1CC(c2ccc(Br)cc2)c2c(c3ccccc3oc2=O)O1 (stereo not given),6%
NC(N)=NOCC[C@H](N)C(=O)O,-5%&29%&1%
C[C@]12CC[C@@H](O)CC1=CC(=O)C1C2CC[C@]2(C)C(=O)CCC12 (stereo not given in full),-29%
COc1ccc(N2C(=O)NC(=O)/C(=C/c3ccc([N+](=O)[O-])s3)C2=O)cc1,40µM*
O=C(COC(=O)Cc1ccccc1)Nc1ccc(F)cc1,-4%
C=CCN(CC=C)C(=O)Nc1ccc(OCC)cc1,-2%
NS(=O)(=O)c1ccc(N=Nc2c(O)[nH]c(=S)[nH]c2=O)cc1,-6%
Cc1c(C=O)c2ccccc2n1Cc1ccccc1,-1%
COc1cc(N2CCOCC2)ccc1/C=C1\C(=O)NC(=O)N(C2CCCCC2)C1=O,-2%
C/C=C1\NC(=O)[C@@H](NC(=O)[C@H](CCc2ccc(O)cc2)NC(=O)[C@H](C)NC(=O)[C@H](O)CO)[C@@H](C)OC(=O)[C@H](C(C)C)NC(=O)[C@H](Cc2ccc(O)cc2)N(C)C(=O)[C@H](Cc2ccccc2)N2C(=O)C(CC[C@H]2O)NC1=O (stereo not given in full),3%
CCC(=Nc1ccc2c(c1)CCC2)c1c(O)n(C2CCCCC2)c(=O)[nH]c1=O,-6%
COc1ccc(C(=O)N2CCCC2=O)cc1,5%&5%&5%
Cc1cc(C=C2C(=O)N(C)C(=S)N(C)C2=O)c(C)n1-c1cccnc1,u
CC(=O)[C@H]1CC[C@H]2[C@@H]3CCC4=CC(=O)CC[C@]4(C)[C@H]3CC[C@]12C,-23%&0%
CC12CC[C@H]3[C@@H](CCC4(O)C[C@H](O)CCC34/C=N/NC(=O)c3ccccc3O)C1(O)CCC2C1=CC(=O)OC1 (stereo not given in full),9%
Cn1c(O)c(/C=N/NC(=O)c2ccncc2)c(=O)[nH]c1=S,-28%
CCOc1ccccc1C1SCC(=O)Nc2c1c(=O)[nH]n2C(CC)CC (stereo not given),17%
CC12CCC3C(CCC4C/C(=N/O)CCC43C)C1CCC2O (stereo not given),-15%
COc1ccc(C2Oc3c(I)c(OC)cc(OC)c3CC2O)cc1OC (stereo not given),-4%
CCC(=NCCCn1ccnc1)c1c(O)n(Cc2ccccc2)c(=O)[nH]c1=O,2%
O=[N+]([O-])c1cc(Cl)c(O)c(-[n+]2c(-c3ccccc3)cc(-c3ccccc3)cc2-c2ccccc2)c1,-9%
CN1CCC(=O)N(CCN=[N+]=[N-])CC1,-14%
CCCCC/C=C\C/C=C\C/C=C\C=C\[C@H](CCCC(=O)O)OO,4%&7%
COc1ccc(C2NCCc3[nH]cnc32)cc1 (stereo not given),-6%
CC(=O)c1cccc(NC(=O)N2C[C@H]3C[C@@H](C2)c2cccc(=O)n2C3)c1,10%
COc1ccc2c(c1)c(C(=O)C(C)N1CCCCC1)c(C)n2C (stereo not given),2%
CN(Cc1c[nH]c2ccccc12)C1CCCCC1,-12%
O=C(COc1ccccc1F)N1CCN(CCN2C(=O)c3cccc4cccc(c34)C2=O)CC1,-1%
C#CCOc1ccc2c(c1)c(C(C)=O)c(C)n2Cc1ccccc1,-2%
CSC(=Nc1ccccc1)c1c(O)n(C)c(=O)n(C)c1=O,-4%
Cc1cc(C=C2C(=O)NC(=O)NC2=O)c(C)n1-c1ccc2c(c1)OCO2,5%
Nc1c(C(=O)NCc2ccco2)c2nc3ccccc3nc2n1CCN1CCOCC1,-28%
CC(=NCCN1CCOCC1)c1c(O)n(Cc2ccccc2)c(=O)[nH]c1=O,-7%
C/C(=N\Nc1ccccc1)c1c(O)n(C)c(=O)n(C)c1=O,-6%
CC1(C)S[C@@H]2[C@H](N)C(=O)N2C1C(=O)O (stereo not given in full),4%
CCN(CC)CCN1Cc2ccccc2C1=N,-4%
N#Cc1cc2c(nc1SCC(=O)Nc1cc(Cl)cc(Cl)c1)C1CCN2CC1,-9%
O=C1NC(=O)N(c2cccc(Br)c2)C(=O)/C1=C/c1ccsc1,u
C=Cc1ccc(Cn2c(C(=O)O)c(C=O)c3ccccc32)cc1,0%
COC(=O)C1=C(c2ccc(F)cc2OCc2ccccc2)C[C@@H]2CC[C@H]1N2C(=O)NCc1ccc(C(F)(F)F)cc1,u
COC(=O)C1=C(c2cccc(OCc3ccccc3)c2)C[C@@H]2CC[C@H]1N2C(=O)NCc1ccc(OC)c(OC)c1,-2%
CCC(C)N1Cc2ccccc2C1=N (stereo not given),16%
CN1CCN(c2c(N)c(=O)oc3ccccc23)CC1,-14%
O=C1CN(O)C(c2ccccc2Cl)=c2cc(Br)ccc2=N1,-4%
CCOP(=O)(OCC)C(NC(=O)CC(C)C)C(Cl)(Cl)Cl (stereo not given),1%
CCN1CCN(C(=O)Cc2ccc(C)cc2)CC1,-6%
CCC1CN1P(=O)(Oc1ccc(Cl)cc1)N1CC1CC (stereo not given),-9%
C#C[C@]1(O)CCC2C3C(=O)C=C4C=CCC[C@]4(C)C3CC[C@@]21C (stereo not given in full),-3%
Cc1cc(C(=O)OCC(=O)Nc2ccc(F)cc2F)c(C)n1C1CC1,18%
O=C(O)c1ccc(N=Cc2c(O)[nH]c(=O)[nH]c2=O)cc1,-22%
Cc1nn(Cc2ccccc2)c(C)c1C(=O)NCc1ccccc1F,-7%
CSc1ncc(Cl)c(C(=O)O)n1,10%
O=C(COc1ccccc1Cl)N1CCN(CCc2ccncc2)CC1,9%
CCOP(=O)(OCC)/C(C#N)=C/c1ccoc1,-13%
COC(=O)[C@@]1(O)C[C@@H]2O[C@@]1(C)n1c3ccccc3c3c4c(c5c6ccccc6n2c5c31)C(=O)NC4,11%
N#Cc1cc2c(nc1SCC(=O)Nc1ccc(F)c(Cl)c1)C1CCN2CC1,7%
CCCCNC(=O)c1c(N)n(CCCOC)c2nc3ccccc3nc12,50µM*
Cc1ccc(C(=O)Nc2ccccc2)cc1S(=O)(=O)N1CCCC1,2%
CCN(CC)CCOC(=O)c1cc2cc(COC)ccc2o1,-15%

# Following part.
SMILES,VDR inh
COc1ccc(NC(=O)N2CCC3(CC2)OCCO3)c(OC)c1,9%
COc1ccc(NC(=O)C2C3CCC(O3)C2C(=O)O)c(OC)c1 (stereo not given),6%
CCOC(=O)c1ccc(N2C(=O)CC(N3CCC(C#N)(c4ccccc4)CC3)C2=O)cc1 (stereo not given),-2%
COc1cccc(CC(=O)N(C)C2CCCN(Cc3ccccc3F)C2)c1 (stereo not given),-12%
CN(C)P(=O)(C(Cl)=C(N1CCCCC1)N1CCCCC1)N(C)C,27%
CC(=O)OC1CC(OC2C(O)CC(OC3C(O)CC(OC4CCC5(C)C(CCC6C5CC(O)C5(C)C(C7=CC(=O)OC7)CCC65O)C4)OC3C)OC2C)OC(C)C1OC1OC(CO)C(O)C(O)C1O (stereo not given),-10%&0%

# Ordered by heavy-atom count (rising): some entries from above.
SMILES,VDR inh
CCN(CC)N=O,12%
O=C(Nc1ccc(Br)cc1)c1cc(Br)cc(Br)c1O,56µM*
C=Cc1ccc(Cn2c(C(=O)O)c(C=O)c3ccccc32)cc1,0%
Oc1ccc(/C=N/NP(=S)(c2ccccc2)c2ccccc2)cc1,-29%
